Bioassay records (PubChem)
TRPML1 agonist: human mucolipin-1 channel agonism | Q9GZU1 | TRPML1-expressing cells, Ca2+ dye fluorescence, FDSS; host cell line not named in the record; reference of the full effect not given here | activation, % (concentration not given with the values) | actives 0.12% (n = 410,000) | AID 624414; in the data active = activation above about 50%; inconclusive = about 30% to 50%; inactive = below about 30%; further: 0% is about no effect; the text of the record puts the active cut at 80%
Target sequence (Q9GZU1 whole entry, looked up): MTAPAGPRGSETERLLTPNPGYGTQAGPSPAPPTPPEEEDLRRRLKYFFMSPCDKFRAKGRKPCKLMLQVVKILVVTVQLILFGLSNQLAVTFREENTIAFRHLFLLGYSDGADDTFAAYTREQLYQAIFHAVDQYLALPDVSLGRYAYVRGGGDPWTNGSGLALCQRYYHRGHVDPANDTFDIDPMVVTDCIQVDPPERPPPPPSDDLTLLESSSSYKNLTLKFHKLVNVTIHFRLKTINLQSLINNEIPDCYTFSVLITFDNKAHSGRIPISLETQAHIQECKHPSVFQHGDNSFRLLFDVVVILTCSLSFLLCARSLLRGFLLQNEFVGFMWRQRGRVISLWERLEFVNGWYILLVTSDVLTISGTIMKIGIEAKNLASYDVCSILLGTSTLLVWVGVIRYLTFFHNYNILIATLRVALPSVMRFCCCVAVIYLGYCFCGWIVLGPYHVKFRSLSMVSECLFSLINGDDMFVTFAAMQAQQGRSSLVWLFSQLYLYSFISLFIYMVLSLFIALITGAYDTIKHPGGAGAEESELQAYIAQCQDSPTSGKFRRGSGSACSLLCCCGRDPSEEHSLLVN
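TRPML1-DL cells, Tet-induced overnight (~16 h, 37 degrees C), loaded 45-90 min at room temperature with Ca8 no-wash calcium dye plus quencher. FDSS fluorescence: 10 s baseline, compound pin-transfer, 110 s agonist read, then EC80 54-4 (4uM final) and 110 s antagonist read.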
TRPML1 inh: inhibitors of human TRPML1 channel. activity change, negative = inhibition, % (test concentration not listed). TRPML1-inducible cells, Ca2+ dye fluorescence, FDSS; stronger effect = lower value; inhibition of EC80 agonist-evoked calcium signal. Q9GZU1. AID 624415. actives 0.02% (n = 390,000); in the data active means activity change below about -50%; inconclusive means about -30% to -50%; inactive means above about -30%;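 further: stimulus is agonist 54-4 at its EC80 concentration; on the % scale 0 is the no-effect control and ±100 the full control effect; compound concentration not given in the record; the text of the record puts the active cut at -80%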
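TRPML1-DL cells, Tet-induced overnight (~16 h, 37 °C) at 1,500 cells/well, were loaded with Ca8 no-wash dye plus quencher for 45-90 min at room temperature. Compounds were pinned during FDSS kinetic reading; agonist 54-4 at EC80 (4 uM final) then added.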
ClpP mod: qHTS Assay for Activators of ClpP. actives 1.9% (n = 340,000). purified B. subtilis ClpP, FRET peptide cleavage, 20 min. Potency, µM (top dose mostly 57.5 µM), without a hit: top-dose activity change, negative = active. ATP-dependent Clp protease proteolytic subunit (Bacillus subtilis (strain 168)), P80244; active = well fitted falling curve with a large enough effect; inconclusive = small, poorly fitted or top-dose-only effect; inactive = no such curve, though single readings can be large or run the other way; further: potency means the concentration at half of the fitted maximal effect; the source files actives as falling curves though it sought activators and does not explain the sign; nearly all actives have a fitted effect of over 65% in size; many hits overshoot -100%
Target sequence (P80244 whole entry, looked up): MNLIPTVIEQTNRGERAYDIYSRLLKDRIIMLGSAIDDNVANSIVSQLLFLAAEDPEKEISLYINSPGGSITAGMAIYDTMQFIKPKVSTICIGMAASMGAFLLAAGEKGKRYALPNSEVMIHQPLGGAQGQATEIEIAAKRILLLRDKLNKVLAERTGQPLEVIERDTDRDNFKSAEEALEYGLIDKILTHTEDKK
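ClpP 10 microg/mL final, pH 8 Tris/KCl buffer with BSA, glycerol, Tween-20; compound pinned in; FRET-FV substrate; RT 20 min; Ex320/Em430; ΔFRET vs ADEP 5.8 microM, DMSO, no enzyme.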
Menin-MLL FL inh: menin-MLL binding inhibition, fluorescein peptide | Fluorescence polarization, fluorescein-MLL peptide displacement from menin | FP activity change, % at 61.4 µM | 290,000 tested, under 10 active; inconclusive = falling polarisation curve, or a change in total fluorescence; inactive = total fluorescence flat and polarisation flat or rising; no compound was filed as active; the % refers to the polarisation; negative = inhibition;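 further: % of control where 0% means no effect; inhibitors lower the polarisation; unlabelled MLL peptide was the positive control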
gsp ag: agonists of gsp mutant (McCune-Albright syndrome); gsp mutant cells, cAMP HTRF, 30 min; control for the full effect not named in the record; Potency, µM (titrated, usually from 76.9 µM), without a hit: at the highest dose activation (cAMP increase), most hits filed as activators; actives 0.13% (n = 340,000); AID 624287; active = well fitted activation curve with a large enough effect; inconclusive = small, poorly fitted or top-dose-only effect, or another doubt; inactive = no such curve, though single readings can be large or run the other way; cell line not stated here;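 further: phosphodiesterase inhibitor Ro 20-1724 added with compounds to block cAMP breakdown; potency means the concentration at half of the fitted maximal effect; nearly all actives have a fitted effect of over 60% in size; about a fifth of the inactives were tested at one dose only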
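Cells stably selected in G418 were plated at 2000/well, grown 16-24 hr, then given compounds in DMSO with the PDE inhibitor […] (300 uM solution added) for 30 min at 37C; cAMP was read by HTRF.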
gsp antag: antagonizes gsp, the McCune-Albright syndrome mutation. gsp-mutant cells, cAMP HTRF, 30 min; control for the full effect not named in the record. Potency, µM (top dose mostly 76.9 µM), for the others: at the top dose activity change, negative = inhibition, most hits filed as inhibitors. actives 0.4% (n = 340,000). AID 624288; active = falling curve of any shape with a large fitted effect; inconclusive = falling curve, mostly with a smaller effect; inactive = flat or rising curve; cell line not stated here;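 further: intracellular cAMP measured with PDE inhibitor Ro 20-1724 present during compound exposure; potency means the concentration at half of the fitted maximal effect; on the % scale 0 is the no-effect control and ±100 the full control effect; nearly all actives have a fitted effect of over 65% in size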
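Measurement of cellular cAMP by homogeneous time-resolved fluorescence following a 30 min compound exposure at 37C. The PDE inhibitor […] was present throughout; the assay buffer was DPBS with 0.05% BSA and 0.005% Tween 20.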
Starred values were filed as active, the others as inactive; ? = inconclusive; · = not tested or not shown; & = joins results of further samples; [ ] = another dose, or the depositor's remark. The order is random. Share with any hit: about 2.1%.

SMILES	TRPML1 agonist	TRPML1 inh	ClpP mod	Menin-MLL FL inh	gsp ag	gsp antag
Cc1cc(=O)oc2cc(NC(=O)C(C)N3C(=O)C4CCCCC4C3=O)ccc12 (configuration not stated)	1.4	16	1.0%	·	7%[15.4 µM]	3%
COc1ccccc1N1CCN(S(=O)(=O)CCNC(=O)c2ccc(Br)o2)CC1	-1.1	-18	-2.3%	0.1	7%	-2%
COc1ccc(NS(=O)(=O)c2cc(NC(=O)c3cc(F)c(F)cc3Cl)ccc2N2CCOCC2)cc1	0.1	-8	-8.1%	·	7%	-6%
Cc1nc(N2CCOCC2)c2c(C(=O)NCc3ccc(Cl)cc3)c(C)oc2n1	0.5	11	1.5%	·	·	·
CC(C)(C)NC(=O)c1ccccc1NC(=O)C1CCCO1 (configuration not stated)	-0.3	-10	·	0.2	-8%	15%
O=C(Nc1ccncc1)c1ccc2c(c1)S(=O)(=O)c1ccccc1C2=O	-0.9	-13	2.0%	0.1	-2%	-2%
O=C1c2ccccc2C(=O)N1Cc1nc2ccccc2c(=O)n1CCCn1ccnc1	-1.4	8	1.1%	-0.2	-8%	-3%
Cc1ccc(C(=O)NCCNc2nc3cc(C)c(C)cc3cc2C)cc1	0.6	11	·	1.8	22µM*	3%
CC1(c2ccccc2)NC(=O)N(CC(=O)N2CCc3ccccc32)C1=O (configuration not stated)	1.5	-6	0.9%	·	-62%[inhibitor]	·
Cc1ccc(C(c2sc3nc(C)nn3c2O)N2CCN(c3ccccc3F)CC2)cc1 (configuration not stated)	0.7	-9	-0.6%	2.7	-50%[inhibitor]	-14%
CN1C[C@@H]2[C@@H]3C(=O)N(C)C(=O)[C@@H]3[C@](C)(C1=O)N2C(=O)c1ccccc1	-0.2	35	-0.4%	·	-10%	8%
O=C(Nc1ccccc1)OC(CN1CCCCC1)C(F)(F)F (configuration not stated)	1.7	31	-0.8%	2.5	2%	-2%[15.4 µM]
COCCN1CCC(CNCc2cn[nH]c2-c2ccc(C)c(C)c2)C1 (configuration not stated)	·	·	-0.8%	-0.2	-2%	9%
COc1ccc(OC)c(S(=O)(=O)NC(C)c2ccc(-n3ccnc3)cc2)c1 (configuration not stated)	0.0	17	-0.5%	·	0%	-4%
COc1ccc(-c2nn(C)c3sc(C(=O)N4CCN(c5cc(Cl)ccc5C)CC4)cc23)cc1OC	-0.1	-11	4.4%	·	·	·
COc1ccc(-c2cc3ccc(OC)cc3cn2)cc1	-0.3	0	-24%	·	·	-4%
CCOC(=O)c1nnn(-c2nonc2N)c1CSc1ccccn1	-0.6	-10	1.8%	-2.0	11%	1%
COc1cc([N+](=O)[O-])ccc1-c1ccc(/C=N/NC(N)=O)o1	6.4	-8	·	?	-5%[15.4 µM]	0%
CCc1cccc(NC(=O)c2coc(=O)c3ccccc23)c1	0.1	-13	11%	·	·	·
CCOC(CCNC(=O)c1cn(C)c(=O)c2c1c1ccccc1n2C)OCC	3.9	-7	4.0%	-0.2	-18%	-5%
N#CC1=C(N)Oc2cc(O)ccc2C1c1ccc(Br)s1 (configuration not stated)	18	42	-0.3%	?	-8%[15.4 µM]	-28%
Cc1ccc(C(=O)OC(C)C(=O)NC2CCCCC2C)s1 (configuration not stated)	-0.6	5	0.7%	·	-16%	-1%
COc1ccccc1-n1c(SCC(=O)N2CCCC2)nc2cccnc21	-0.1	10	-0.4%	0.9	-2%	6%
Cc1onc(-c2ccccc2Cl)c1C(=O)N1CCN(C(=O)c2ccco2)CC1	1.1	0	-1.6%	2.7	-6%	-14%
O=C(NCC(=O)N1CCN(S(=O)(=O)c2ccccc2F)CC1)c1ccc2ccccc2c1	1.6	-9	·	·	13%[15.4 µM]	-24%

Two of these compounds in another layout.
compound: Cc1cc(=O)oc2cc(NC(=O)C(C)N3C(=O)C4CCCCC4C3=O)ccc12 (configuration not stated)
  TRPML1 agonist: 1.4 | TRPML1 inh: 16 | ClpP mod: 1.0% | Menin-MLL FL inh: · | gsp ag: 7%[15.4 µM] | gsp antag: 3%

compound: COc1ccccc1N1CCN(S(=O)(=O)CCNC(=O)c2ccc(Br)o2)CC1
  TRPML1 agonist: -1.1 | TRPML1 inh: -18 | ClpP mod: -2.3% | Menin-MLL FL inh: 0.1 | gsp ag: 7% | gsp antag: -2%

Later entries.
SMILES	TRPML1 agonist	TRPML1 inh	ClpP mod	Menin-MLL FL inh	gsp ag	gsp antag
CCOC(=O)C1=C(N)Oc2cc(O)ccc2C1c1ccccc1 (configuration not stated)	2.3	4	-2.1%	-1.9	-20%	-12%
c1cn2c(NC3CCCCC3)c(-c3ccc(SC4CCCCC4)cc3)nc2cn1	-0.6	-1	-22%&-22%	·	·	4%
Cn1c(Cn2nnc3ccccc32)nnc1SCC(=O)N1CCc2ccccc21	-0.6	-3	0.2%	-0.8	-6%	4%
CNC(=S)N(C)[C@H]1c2c(ccc3ccccc23)OC[C@H]1CO	0.3	-14	·	-0.7	-51%[inhibitor]	-6%
CC1CCN(C(=O)CSCc2ccc(Cl)cc2)CC1	-0.1	-7	-0.9%	0.5	-37%[inhibitor]	4%
COC(=O)/C=C1/N/C(=N\c2nc(C)cc(C)n2)N(c2cccc(C)c2)C1=O	0.7	-4	-3.5%	8.7	-15%	-5%
Cc1ccc(NS(=O)(=O)c2ccc(OCC(=O)NCC3CCCO3)cc2)cc1 (configuration not stated)	0.1	-4	·	-0.9	3%[15.4 µM]	-16%
C=CCn1c(Sc2nc(C)cs2)nc2c1c(=O)[nH]c(=O)n2C	-0.5	28	1.7%	-1.7	6%	4%
CS(=O)(=O)c1nc(-c2ccc(Br)cc2)cc(-c2ccccc2)c1C#N	0.7	16	-26%	1.7	?	-12%
COc1ccc2c(c1)c(=O)oc1c(C)c(OC(C)C(=O)NCC3CCC(C(=O)O)CC3)ccc12 (configuration not stated)	·	·	4.3%	-11	·	-4%
CC(C)OCCCNc1ccc(N2C(=O)CCCC2=O)cc1[N+](=O)[O-]	-0.9	-19	-0.3%	-1.0	19%	15%
COC(=O)/C=c1/s/c(=C(/C#N)C(=O)N2CCOCC2)n(-c2ccccc2)c1=O	1.2	1	-1.1%	6.8	1%	17%
CC1Cc2ccccc2N1Cc1cccc([N+](=O)[O-])c1 (configuration not stated)	0.8	14	·	-7.9	-3%[15.4 µM]	-4%
Nc1ccc2nc(SCC(=O)Nc3ccc(N4CCOCC4)c(Cl)c3)sc2c1	-0.7	2	1.6%	·	-12%[15.4 µM]	-47%
CN(C)c1nc(Oc2ccc(=O)[nH]n2)nc(N2CCOCC2)n1	-0.2	-10	-3.5%	4.8	25%	-2%
O=C(CSc1c2c(nc3cc(Cl)ccc13)CCCC2)N1CCN(c2ccccc2F)CC1	2.1	44	-0.4%	·	·	·
Cc1cc(C(=O)CSc2nnc(-c3ccncc3)n2-c2ccccc2)c(C)n1C	-0.1	9	2.7%	3.8	1%	-15%
C=CCn1c(COc2ccccc2)nnc1SCC(=O)Nc1ccc(S(N)(=O)=O)cc1	-0.6	-2	0.7%	-0.3	14%	4%
CCc1ccc(C(=O)c2cn(CC(=O)Nc3ccc4c(c3)OCCO4)c3ccc(CC)cc3c2=O)cc1	0.3	2	0.8%	·	·	·
Cc1ccc(-c2nc3ccccc3c(=O)n2CCCn2ccnc2)cc1	-0.5	-10	-4.9%	3.4	13%	-2%
CCOC(=O)C1=CCN(S(=O)(=O)c2ccccc2Cl)C1c1cccc(C)c1 (configuration not stated)	5.1	-29	-0.8%	·	·	·
CCOC(=O)N1CCC(NC(=O)CS(=O)Cc2nc(-c3ccc(C)cc3)oc2C)CC1 (configuration not stated)	0.0	2	-7.0%	·	16%	17%
C=CCNC(=O)c1ccc2c(=O)n(CCCN3CCCC3=O)c(=S)[nH]c2c1	0.1	15	-3.0%	1.0	19%[15.4 µM]	-1%
CCOc1ccccc1NC(=O)Cn1c(=O)c(OCC)nc2cnccc21	3.5	46	-1.3%	·	-2%	9%
O=C(Nc1ccc(F)c(Cl)c1)c1cc(S(=O)(=O)N2CCCc3ccccc32)ccc1F	2.9	70	-23%	·	·	·
SMILES	TRPML1 agonist	TRPML1 inh	ClpP mod	Menin-MLL FL inh	gsp ag	gsp antag
O=[N+]([O-])c1ccc(OCC(O)CN(C2CCCCC2)C2CCCCC2)cc1 (configuration not stated)	0.3	18	-2.0%	-1.4	12%	-8%
COc1cc2c(cc1CNC[C@H]1O[C@@H](n3ccc(N)nc3=O)[C@H](O)[C@@H]1O)OCO2	-0.4	-6	-0.4%	·	9%	·
c1nc(NC2CCCCCC2)c2[nH]cnc2n1	-1.3&-0.2	-8	0.4%&0.1%	-0.1	-11%	-13%
Cc1ccc(-c2ccc(SCC(=O)NCC3CCCO3)nn2)cc1 (configuration not stated)	0.0	-3	·	-6.6	-24%[15.4 µM]	-3%
CCOC(=O)Cn1c2c(c(=N)c3c1CCC3)CCCC2	0.4	4	·	0.4	-5%[15.4 µM]	9%
COc1ccc(C(=O)NC(=S)NCc2ccco2)cc1OC	0.9	-4	0.8%	2.8	-4%	1%
O=C(C1CCC(CNS(=O)(=O)c2ccccc2)CC1)N1CCOCC1 (configuration not stated)	-0.3	6	0.8%	-3.8	-45%[inhibitor]	7%
Cc1cccc(C)c1Nc1ncnc(N)c1[N+](=O)[O-]	-0.1	-13	-1.1%	1.1	-38%[inhibitor]	16%
Cc1ccc(Cl)c(OC(=O)c2nn(C(C)C)c(=O)c3ccccc23)c1	1.6	-5	1.7%	2.0	26%	-12%
O=C(Nc1cccc2ccccc12)c1cnsn1	0.1	0	-0.3%	1.3	-26%	60%[activator]
O=C(CNC(=O)c1ccco1)Nc1ccc(Cl)cc1	-0.3	8	-1.8%	-2.2	19%[15.4 µM]	6%
COc1cc(C(=O)NNC(=O)c2ccc3ccccc3n2)cc(OC)c1OC	2.1	-20	-2.2%	·	7%	12%
Cc1ccc(/C=N/NC(=O)c2ccc(C(=O)N/N=C/c3ccc(C)s3)o2)s1	-0.3	-10	32%	-0.6	-24%	-4%
CCOc1ccc(NC(=S)N=Nc2c(O)[nH]c3ccccc23)cc1	0.0	20	·	-1.5	6%[15.4 µM]	-9%
CCOC(=O)COc1ccc(C(=O)c2ccccc2)c(O)c1	1.8	3	0.9%	-2.9	-38%	-20%
Cc1ccc(-c2csc(NC(=O)c3ccc(F)cc3)c2C(=O)O)cc1	2.1	-11	-3.8%	1.4	-30%	-30%
CC(C)NC1(C(N)=O)CCNCC1	0.0	-3	·	·	?	-11%
